NOMO-1 viab: STK33 inhibitor candidate reducing NOMO-1 cell viability; AID 2330; inhibition, % (test concentration not listed); 37,000 tested, 7.5% active; NOMO-1 AML viability, CellTiter-Glo luminescence, 72 h;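 active = most replicates above 80%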;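 also: wells of about 30 µL received 25 nL stock; 0% = median of vehicle wells and 100% = reference inhibitor level; the first replicate is given; inactives centre near 10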
Active calls of the source: *. Not all compounds are listed; the hit share may differ from the screen's.

Start of the data: the first 4 compounds as a preview:
# | structure | NOMO-1 viab
1 | COc1ccc(CN(C)C[C@H]2Oc3c(NC(=O)Nc4ccc(OC)cc4)cccc3C(=O)N([C@H](C)CO)C[C@H]2C)cc1 | 2
2 | C[C@@H]1CN([C@@H](C)CO)C(=O)c2cc(NC(=O)Nc3ccc4c(c3)OCO4)ccc2O[C@@H]1CN(C)Cc1ccc(-c2ccccc2)cc1 | 37
3 | CC(C)NC(=O)N(C)C[C@H]1Oc2c(NS(=O)(=O)c3ccc(F)cc3)cccc2C(=O)N([C@@H](C)CO)C[C@@H]1C | -15
4 | C[C@@H]1CN([C@@H](C)CO)C(=O)Cc2cc(NS(=O)(=O)c3ccccc3)ccc2O[C@@H]1CN(C)C | 6

This part in full, repeating the preview:
# | structure | NOMO-1 viab
1 | COc1ccc(CN(C)C[C@H]2Oc3c(NC(=O)Nc4ccc(OC)cc4)cccc3C(=O)N([C@H](C)CO)C[C@H]2C)cc1 | 2
2 | C[C@@H]1CN([C@@H](C)CO)C(=O)c2cc(NC(=O)Nc3ccc4c(c3)OCO4)ccc2O[C@@H]1CN(C)Cc1ccc(-c2ccccc2)cc1 | 37
3 | CC(C)NC(=O)N(C)C[C@H]1Oc2c(NS(=O)(=O)c3ccc(F)cc3)cccc2C(=O)N([C@@H](C)CO)C[C@@H]1C | -15
4 | C[C@@H]1CN([C@@H](C)CO)C(=O)Cc2cc(NS(=O)(=O)c3ccccc3)ccc2O[C@@H]1CN(C)C | 6
5 | N#Cc1ccc(C#N)c(-c2ccccc2)c1 | 7
6 | COC(=O)c1ccccc1NC(=O)CSc1nnc(-c2cccnc2)n1-c1ccccc1 | -10
7 | CC1(C)C=Cc2c(cc3occ(-c4ccc5c(c4)OCO5)c(=O)c3c2O)O1 | 47
8 | C[C@H]1CN([C@@H](C)CO)C(=O)Cc2cc(NS(=O)(=O)c3cn(C)cn3)ccc2O[C@H]1CN(C)Cc1ccccc1 | 12
9 | COc1ccc(OC)c(C(=O)c2ccc(C(=O)NCc3nc(-c4ccccc4)cs3)cc2)c1 | -6
10 | CC(C(=O)NC1CCCCC1)N(c1ccc(Cl)cc1)S(C)(=O)=O (stereo unspecified) | 6
11 | CNC[C@H]1Oc2ccc(NC(=O)Nc3ccccc3)cc2C(=O)N([C@H](C)CO)C[C@H]1C | -4
12 | C[C@@H]1CN([C@H](C)CO)C(=O)c2cc(NC(=O)Cc3cn(C)c4ccccc34)ccc2O[C@H]1CN(C)Cc1ccncc1 | 21
13 | Cc1noc(C)c1NC(=O)Nc1ccc2c(c1)CC(=O)N([C@H](C)CO)C[C@@H](C)[C@H](CN(C)Cc1ccncc1)O2 | 7
14 | CC(C)NC(=O)N(C)C[C@@H]1OCCCC[C@@H](C)Oc2ccc(NC(=O)CCC(F)(F)F)cc2C(=O)N([C@H](C)CO)C[C@@H]1C | -9
15 | COc1ccc(NC(=O)N(C)C[C@H]2Oc3c(NS(=O)(=O)c4cccs4)cccc3C(=O)N([C@@H](C)CO)C[C@@H]2C)cc1 | 15
16 | Cc1ccc(S(=O)(=O)Nc2ccc3c(c2)C(=O)N([C@@H](C)CO)C[C@@H](C)[C@@H](CN(C)Cc2ccc(C(=O)O)cc2)O3)cc1 | -8
17 | C[C@H](CO)N1C[C@H](C)[C@H](CN(C)S(=O)(=O)c2ccc(Cl)cc2)Oc2ccc(NC(=O)C3CC3)cc2C1=O | -2
18 | C=C[C@@]1(C)C[C@@]2(OC[C@@]3(C)O[C@@H]23)Oc2c1c(=O)oc1cccc(C)c21 | 7
19 | C[C@@H]1CN([C@H](C)CO)C(=O)c2cccc(NC(=O)c3nc4ccccc4s3)c2O[C@@H]1CN(C)CC1CC1 | -4
20 | CC1CCCCN1S(=O)(=O)c1ccc(N)cc1 (stereo unspecified) | 2
21 | C[C@H]1CN([C@@H](C)CO)C(=O)c2cc(NC(=O)CCCN(C)C)ccc2O[C@@H]1CN(C)Cc1ccc2c(c1)OCO2 | 5
22 | C[C@@H]1CN([C@@H](C)CO)C(=O)c2cc(NC(=O)C3CCCCC3)ccc2O[C@H]1CN(C)C(=O)Nc1cccc2ccccc12 | 13
23 | C=C(C(=O)O[C@H]1C[C@]2(C)C(C(C=O)CC[C@H]2O)[C@H]2OC(=O)C(=C)[C@H]12)C(O)CO (stereo partly specified) | 104*
24 | O=C(Cn1cnc2ccccc2c1=O)Nc1cc(Cl)c(Cl)cc1Cl | 26
25 | O=C(CCN1C(=O)c2ccccc2C1=O)Nc1ccc2c(c1)OCCO2 | 4

(next part)
# | structure | NOMO-1 viab
26 | C[C@@H]1CN([C@H](C)CO)C(=O)c2cc(NC(=O)c3ccncc3)ccc2O[C@@H]1CN(C)C(=O)Nc1ccc(F)cc1 | 11
27 | C[C@H]1CN([C@@H](C)CO)C(=O)c2cc(NC(=O)CCC(F)(F)F)ccc2O[C@H]1CN(C)Cc1ccncc1 | 51
28 | Cc1c(Cl)cccc1NC(=O)Cn1cc(C(=O)c2ccccc2)c2ccccc21 | 55
29 | Cc1ccc(OCC(=O)Nc2cc(Cl)ccc2C(=O)O)c(C)c1 | -10
30 | Cc1ccc(NC(=O)COc2ccc(Cl)cc2C)c([N+](=O)[O-])c1 | 14
31 | CC(C)=CCc1cc(O)ccc1O[C@@H]1O[C@H](CO)[C@@H](O)[C@H](O)[C@H]1O | 18
32 | Cc1noc(C)c1NC(=O)Nc1ccc2c(c1)CC(=O)N([C@H](C)CO)C[C@@H](C)[C@@H](CN(C)Cc1ccc(C(=O)Nc3ccccc3N)cc1)O2 | 22
33 | Cc1ccc(S(=O)(=O)NCc2ccccc2)cc1 | 12
34 | CC(=O)Nc1ccc(NC(=O)Cn2cc([N+](=O)[O-])cn2)cc1 | -9
35 | C[C@H]1CN([C@@H](C)CO)C(=O)c2cc(NS(=O)(=O)c3cn(C)cn3)ccc2O[C@@H]1CN(C)CC1CC1 | 9
36 | C[C@@H]1CN([C@H](C)CO)C(=O)c2cc(NS(=O)(=O)c3cccs3)ccc2O[C@H]1CN(C)Cc1ccc2c(c1)OCO2 | 6
37 | Cc1cc(OCC(=O)NCc2cccnc2)c(C)cc1Br | 40
38 | COc1ccc(S(=O)(=O)Nc2ccc3c(c2)C(=O)N([C@@H](C)CO)C[C@H](C)[C@H](CN(C)Cc2ccc(C(=O)Nc4ccccc4N)cc2)O3)cc1 | 109*
39 | C[C@@H]1CN([C@@H](C)CO)C(=O)c2cccc(NC(=O)Nc3ccc(C(F)(F)F)cc3)c2O[C@H]1CN(C)C(=O)Nc1cccc2ccccc12 | 106*
40 | C[C@@H]1CN([C@@H](C)CO)C(=O)c2cc(NC(=O)CCCN(C)C)ccc2O[C@H]1CN(C)C | 0
41 | C[C@@H]1CN([C@H](C)CO)C(=O)c2cccc(NC(=O)c3ccc(-c4nccs4)cc3)c2O[C@@H]1CN(C)C(=O)Nc1ccc2c(c1)OCO2 | -2
42 | COc1ccc(Cl)cc1-n1c(Cn2ncc3ccccc3c2=O)n[nH]c1=S | -6
43 | C[C@H](CO)N1C[C@H](C)[C@H](CN(C)Cc2ccncc2)Oc2ccc(NC(=O)Nc3ccc(F)cc3)cc2CC1=O | -8
44 | CCCCN1C(=O)C(O)(CC(=O)c2ccccn2)c2ccccc21 (stereo unspecified) | 125*
45 | C=CCNc1nc(N)c(C(=O)Nc2cc(C)on2)s1 | 4
46 | NC(=O)CSc1nnc(-c2ccncc2)n1-c1cccc(C(F)(F)F)c1 | 26
47 | N#C/C(=C\N1CCCCC1)S(=O)(=O)c1ccc(Cl)cc1 | 20
48 | COc1ccc(NC(=O)CN(c2ccc(Cl)cc2Cl)S(C)(=O)=O)cc1 | -9
49 | C[C@H]1CN([C@@H](C)CO)C(=O)c2cccc(NC(=O)C3CC3)c2O[C@H]1CN(C)C(=O)Nc1cccc2ccccc12 | 19
50 | COc1ccc(S(=O)(=O)Nc2cccc3c2O[C@@H](CN(C)C(=O)Nc2cccc4ccccc24)[C@H](C)CN([C@H](C)CO)C3=O)cc1 | 8

Laid out differently: results already given.
#32 Cc1noc(C)c1NC(=O)Nc1ccc2c(c1)CC(=O)N([C@H](C)CO)C[C@@H](C)[C@@H](CN(C)Cc1ccc(C(=O)Nc3ccccc3N)cc1)O2
  NOMO-1 viab = 22

#33 Cc1ccc(S(=O)(=O)NCc2ccccc2)cc1
  NOMO-1 viab = 12

In a second layout: entries from further up.
33) Cc1ccc(S(=O)(=O)NCc2ccccc2)cc1
  NOMO-1 viab = 12
34) CC(=O)Nc1ccc(NC(=O)Cn2cc([N+](=O)[O-])cn2)cc1
  NOMO-1 viab = -9

Following part:
# | structure | NOMO-1 viab
51 | CNC[C@@H]1Oc2c(N)cccc2C(=O)N([C@H](C)CO)C[C@H]1C | -15
52 | COCc1cc(=O)[nH]c(SCC(=O)C(C)(C)C)n1 | 1
53 | COC(=O)C1=CO[C@@H](O[C@@H]2O[C@H](CO)[C@@H](O)[C@H](O)[C@H]2O)[C@H]2[C@@H]1[C@H](O)C[C@]2(C)O | -10
54 | Cc1cccc2c1N(C)C(=O)C2(O)CC(=O)c1ccco1 (stereo unspecified) | 84*
55 | O=C(Cn1cc(C(=O)c2cccs2)c2ccccc21)Nc1ccc(Br)cc1 | 43
56 | C[C@@H]1CN([C@H](C)CO)C(=O)c2cc(NC(=O)Cn3cnnn3)ccc2O[C@H]1CN(C)C | -4
57 | C[C@@H]1CN([C@H](C)CO)C(=O)c2cc(NC(=O)Nc3ccc4c(c3)OCO4)ccc2O[C@H]1CN(C)Cc1ccncc1 | -6
58 | CC(C)NC(=O)Nc1ccc2c(c1)C(=O)N([C@@H](C)CO)C[C@H](C)[C@H](CN(C)Cc1ccc3c(c1)OCO3)O2 | 72
59 | CCNc1nc(NC(C)(C)C)nc(N(C#N)CC(=O)OC)n1 | 43
60 | CCN(CC)CCN1C2=C(C(=O)CC(C)(C)C2)C(c2cccc(F)c2)C2=C1CC(C)(C)CC2=O | 37
61 | CC(=O)c1cccc(NC(=O)CSc2ncnc3sc(C)c(C)c23)c1 | 30
62 | C[C@H](CO)N1C[C@H](C)[C@H](CN(C)C(=O)Nc2cccc3ccccc23)Oc2ccc(NS(=O)(=O)c3cn(C)cn3)cc2C1=O | -9
63 | CC(C)c1ccccc1NC(=O)CN(C)S(=O)(=O)c1ccc(Br)cc1 | -2
64 | Cc1cccc(C)c1OCC(O)CN1CCN(CCO)CC1 (stereo unspecified) | -4
65 | C[C@H]1CN([C@@H](C)CO)C(=O)c2cc(NC(=O)NC3CCCCC3)ccc2O[C@@H]1CN(C)CC1CCCCC1 | 4
66 | COC(=O)c1ccccc1NC(=O)COc1ccc2ccccc2c1Br | 84*
67 | CC(C)NC(=O)Nc1cccc2c1O[C@@H](CN(C)CC1CC1)[C@H](C)CN([C@@H](C)CO)C2=O | 12
68 | Cc1nc(SCC(=O)c2cc3ccccc3oc2=O)c(C#N)c(C)c1C | 110*
69 | CCNc1c(N)c(=O)oc2ccccc12 | 5
70 | COc1ccc(CN(C)C[C@H]2Oc3c(NC(=O)Nc4c(C)noc4C)cccc3C(=O)N([C@H](C)CO)C[C@@H]2C)cc1 | -4
71 | O=C(CN1C(=O)c2ccccc2C1=O)Nc1ccc(S(=O)(=O)N2CCCCCC2)cc1 | -14
72 | COc1cc(C(=O)NC(=S)Nc2cccc(-c3nc4ncccc4o3)c2C)cc(OC)c1OC | 18
73 | COc1cccc(C(=O)/C=c2\[nH]c(=O)/c(=C\c3cccs3)s2)c1 | 104*
74 | C[C@H](CO)N1C[C@H](C)[C@@H](CN(C)S(=O)(=O)c2ccc(Cl)cc2)Oc2c(NC(=O)Nc3ccc(C(F)(F)F)cc3)cccc2C1=O | 53
75 | CCn1c(SCC(=O)Nc2cc(Cl)ccc2Cl)nnc1-c1ccccc1OC | 56

The list continues:
# | structure | NOMO-1 viab
76 | C[C@@H]1CCCCO[C@H](CN(C)C(=O)c2ccccc2)[C@@H](C)CN([C@H](C)CO)C(=O)c2cc(NS(=O)(=O)c3cn(C)cn3)ccc2O1 | 0
77 | CC[n+]1ccccc1/C=C/N(C(C)=O)c1ccccc1 | 39
78 | C[C@H]1CN([C@@H](C)CO)C(=O)c2cc(NC(=O)Cc3ccccc3)ccc2O[C@H]1CN(C)Cc1ccc2c(c1)OCO2 | 95*
79 | C[C@@H]1CCCCO[C@@H](CN(C)Cc2ccc(Cl)c(Cl)c2)[C@@H](C)CN([C@H](C)CO)C(=O)c2cc(NC(=O)Nc3ccc(F)cc3)ccc2O1 | 134*
80 | COc1ccc(CN(C)C[C@@H]2Oc3ccc(NS(=O)(=O)c4cn(C)cn4)cc3CC(=O)N([C@H](C)CO)C[C@@H]2C)cc1 | 16
81 | O=c1[nH]c(CSc2nnc(-c3ccccc3)n2-c2ccccc2)nc2ccccc12 | -10
82 | C[C@H](CO)N1C[C@H](C)[C@H](CN(C)S(=O)(=O)c2ccc(Cl)cc2)Oc2ccc(NS(=O)(=O)c3ccc(Cl)cc3)cc2C1=O | 48
83 | CN(C)/C=C/C(=O)c1ccc2c(c1)CCC(C)(C)O2 | 121*
84 | Cc1nc2ccccc2n1CC(O)COc1ccccc1Cl (stereo unspecified) | 47
85 | Cc1ccc(NC(=O)CSc2nnc(-c3cccc4ccccc34)n2-c2ccccc2)c(C)c1 | 27
86 | CC(C)NC(=O)Nc1ccc2c(c1)C(=O)N([C@@H](C)CO)C[C@H](C)[C@@H](CN(C)Cc1ccccc1)O2 | 23
87 | C[C@@H]1CN([C@@H](C)CO)C(=O)c2cccc(NS(C)(=O)=O)c2O[C@@H]1CN(C)CC1CCCCC1 | -9
88 | C[C@H]1CN([C@@H](C)CO)C(=O)Cc2cc(NC(=O)c3ccncc3)ccc2O[C@H]1CN(C)Cc1ccc(C(=O)O)cc1 | -5
89 | C[C@@H]1CN([C@@H](C)CO)C(=O)Cc2cc(NC(=O)CCC(F)(F)F)ccc2O[C@@H]1CN(C)S(=O)(=O)c1ccc(F)cc1 | 24
90 | C[C@H](CO)N1C[C@H](C)[C@H](CN(C)S(=O)(=O)c2ccccc2)Oc2c(NC(=O)C3CCOCC3)cccc2C1=O | -2
91 | Cc1ccc(NC(=O)CSc2nnc(-c3cccs3)n2C)cc1Cl | -33
92 | C[C@@H]1CN([C@@H](C)CO)C(=O)Cc2cc(NC(=O)Nc3ccccc3)ccc2O[C@@H]1CN(C)Cc1ccc(C(F)(F)F)cc1 | 119*

High-throughput results from PubChem BioAssay.
